# Screening data deposited in PubChem by several laboratories.
# HNF4A DNA FP = change in binding of human HNF4A to DNA, primary screen, biochemical, fluorescence polarization, FITC-DNA | Hepatocyte nuclear factor 4-alpha (Homo sapiens), P41235 | 1 h | activity change, % at 10 µM | 0.3% of 360,000 active; in the data active means activity change above about 30%, passing the limit was not always enough;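 further: controls were the assay level and a saturating level of protein; the project sought stronger binding though the title names inhibitors; some compounds called inactive have numbers as strong as hits; positive values seem to mean higher polarization but the record does not say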
# UCH37 DUB inh = inhibitors of human UCH37 deubiquitinase, primary screen, biochemical, Ub-AMC cleavage, fluorescence; Ubiquitin carboxyl-terminal hydrolase isozyme L5 (Homo sapiens), Q9Y5K5; purified proteasome/UCH37; inhibition, % (concentration not given with the values); 0.33% of 330,000 active; AID 588478, 2011;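 active means mean of two replicates above 20%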;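 further: 0% = compound-free wells with enzyme and 100% = wells lacking proteasome; stock transfer was 100 nL into about 20 µL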
# Target sequence (Q9Y5K5 whole entry, looked up): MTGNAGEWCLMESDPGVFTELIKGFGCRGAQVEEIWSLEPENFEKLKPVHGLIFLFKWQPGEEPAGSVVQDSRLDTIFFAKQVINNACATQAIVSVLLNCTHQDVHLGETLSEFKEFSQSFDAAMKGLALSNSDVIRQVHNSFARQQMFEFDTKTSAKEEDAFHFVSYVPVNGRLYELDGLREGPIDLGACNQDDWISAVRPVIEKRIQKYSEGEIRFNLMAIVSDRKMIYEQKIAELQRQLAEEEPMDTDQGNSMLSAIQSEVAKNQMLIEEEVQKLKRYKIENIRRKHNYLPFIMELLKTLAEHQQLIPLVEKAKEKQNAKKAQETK
#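 Material: human UCH37 enzyme supplied as purified proteasome complex / Amount: 0.15 nM proteasome as dispensed / Buffer or medium: pH 7.4 Tris-HCl (50 mM) with ovalbumin, ATP-MgCl2, DTT / Times: preincubation 30 min, reaction 25 min, room temperature / Technique: AMC fluorescence from Ub-AMC cleavage, excitation 355 nm, emission 460 nm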
# Beta2AR agonist = beta2AR agonists driving receptor internalization, primary screen, cell-based, FAP fluorogen, flow cytometry. Am2.2-beta2AR cells; reference of the scale not given here. 0.43% of 340,000 active. Beta-2 adrenergic receptor (Homo sapiens), P07550. response, % (concentration not given with the values);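 active means response above a set limit, near 3 SD of response in nonfluorescent compounds, cut at about 42% in these data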;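 further: stock transfer was 100 nL into about 11 µL; a reference agonist was the positive control; negative values mostly stem from fluorescent compounds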
# FGF22 binding = binders of human FGF22 protein, primary screen, FGF22 synaptogenesis inhibitor project, biophysical, thermal shift, single point | 1.5% of 340,000 active | Fibroblast growth factor 22 (Homo sapiens), Q9HCT0 | recombinant FGF22 thermal shift, SYPRO orange fluorescence; percent of sucrose octasulfate shift, DMSO zero | AID 651658, 2012 | calls only at 9.99 µM;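 active means melting point raised past a set limit in the mean and every replicate; three in four hits are not shown here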
# Target sequence (Q9HCT0 whole entry, looked up): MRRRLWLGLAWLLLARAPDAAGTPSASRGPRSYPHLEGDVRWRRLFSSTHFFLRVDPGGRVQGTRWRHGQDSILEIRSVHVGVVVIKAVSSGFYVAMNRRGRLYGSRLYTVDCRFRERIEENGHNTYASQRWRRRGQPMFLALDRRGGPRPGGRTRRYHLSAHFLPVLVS
# E coli growth = E. coli growth inhibition, primary screen, OD600 | Escherichia coli growth, 23 h; active compounds read low | OD600 absorbance (no concentration beside the values) | 0.21% of 330,000 active | AID 1053175, 2014;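 active means OD600 absorbance below the run mean of sample wells minus 3.6 SD, in any replicate, cut at about 0.56 in these data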;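 further: stock transfer was 300 nL into about 60 µL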
# ALR inh = inhibitors of human ALR sulfhydryl oxidase, primary screen, biochemical, H2O2 detection, HRP-luminol luminescence, single point | inhibition, % (no concentration beside the values) | purified ALR, DTT oxidation | 3.8% of 290,000 active;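 active means mean and each replicate at 75% or more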;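 further: stock transfer was 7.5 nL into about 7.5 µL; 0% = neutral wells and 100% = wells with inactivated enzyme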
# Target sequence (P55789 whole entry, looked up): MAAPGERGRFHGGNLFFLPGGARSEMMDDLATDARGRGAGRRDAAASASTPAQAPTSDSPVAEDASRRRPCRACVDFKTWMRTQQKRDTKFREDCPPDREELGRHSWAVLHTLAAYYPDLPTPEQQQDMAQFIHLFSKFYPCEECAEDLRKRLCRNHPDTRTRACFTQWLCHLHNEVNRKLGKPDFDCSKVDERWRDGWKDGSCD
# rRNA inh HTS = reduced GFP signal of wild-type E. coli, primary screen, bacterial rRNA inhibitor project, GFP/RFP fluorescence, OD600, single point; 1.6% of 350,000 active; GFP signal change (wild-type ribosome), % (no concentration beside the values); E. coli WT GFP vs humanized-ribosome RFP mutants, 24 h; active compounds read low; DMSO median 0, no signal -100;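 active means significant combined selectivity score with lowered wild-type GFP, culture density cut under 30%, mutant RFP and density less affected; inactive means any of these conditions unmet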; further: one replicate is shown; some compounds called inactive have numbers as strong as hits
# rRNA inh HTS OD600 = recorded beside rRNA inh HTS, whose call it bears; OD600 change, %; measured here: OD600 growth;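 optical density of the mix in the first replicate; 0 = DMSO median and -100 = no signal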
# rRNA inh HTS RFP = also measured in rRNA inh HTS; calls as there; RFP signal change, %; measured here: RFP humanized mutant strains;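 first replicate; 0 = DMSO median and -100 = no signal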
# The depositor's hits bear a star; i = inactive; / = not tested or not shown; & = joins results of further samples. A portion of the library, so the mix of outcomes need not match the whole.
SMILES,HNF4A DNA FP,UCH37 DUB inh,Beta2AR agonist,FGF22 binding,E coli growth,ALR inh,rRNA inh HTS,rRNA inh HTS OD600,rRNA inh HTS RFP
O=C(NCC1CCCO1)C1CCCN1C(=O)Nc1ccc(Cl)c(Cl)c1 (stereo unspecified),1.6,2.2,-10.4,/,0.654,-5.1,/,/,/
O=C(CCN1C(=O)NC2(CCCC2)C1=O)Nc1ccc(Sc2ccc(Br)cc2)cc1,1.2,/,/,i,/,/,-64.1,-77.2,-21.4
O=C(CC(NCCc1ccccc1)C(=O)O)Nc1ccc(O)cc1 (stereo unspecified),/,3.1,/,/,0.668,91.2*,/,/,/
O=c1c2ccccc2ncn1-c1ccc(Cl)cc1,-0.4&-2.5,4.3&1.5,-3.3&-1.9,i,0.674&0.63,-20.8&-2.5,17.0&3.9,6.0&5.9,1.5&-1.8
COc1cc(OC)c(NC(=O)CS(=O)(=O)Cc2nc(-c3ccc(C)cc3)oc2C)cc1Cl,1.4,-0.6,4.0,i,/,-20.6,-3.7,-9.3,-1.1
O=C(COc1ccc(S(=O)(=O)N2CCOCC2)cc1)Nc1cccc([N+](=O)[O-])c1,-3.0,-0.1,2.7,i,0.699,-8.4,/,/,/
Cc1cccc(OCC(=O)NCCCNC(=O)c2ccncc2)c1,-1.0,0.3,-3.9,i,0.73,2.8,3.8,8.2,-2.2
COc1ccc(C2=NN(c3ccc(C=O)cc3)C(c3ccccc3)C2)cc1 (stereo unspecified),/,-490.4,/,/,0.7,0.0,/,/,/
O=C(O)Cc1ccc(N=Nc2c(O)c(C(=O)O)cc3ccccc23)cc1,-48.4,19.4,8.6,i,0.614,-27.7,-11.2,-35.0,2.3
COc1ccc(OCCN(C)Cc2ccccc2)cc1,4.3,4.7,-5.7,/,0.659,-4.1,/,/,/
Cc1ccc(NC(=O)COC(=O)CN2CCSC2=O)cc1Cl,0.3,/,/,i,/,/,10.3,12.8,2.9
O=C1NCC(Nc2ccc(Cl)cc2)C(=O)N1 (stereo unspecified),-2.2,1.1,3.1,i,0.687,/,13.5,10.1,0.1
COc1cc(NC(=S)Nc2ccccn2)cc(OC)c1OC,-1.1,5.8,-10.3,i,0.697,-2.4,-14.1,-24.1,0.9
COc1ccc2c(c1)[C@H]1[C@H](CO2)[C@H](c2ccccc2)[C@]2(C)C(=O)Nc3cc(OC)c(OC)cc3C(=O)N12,2.7,0.5,10.4,i,/,/,4.3,1.0,-9.3
CC(C)NC(=O)CN(Cc1ccc(F)cc1)C(=O)CCC(=O)Nc1ccccn1,0.1,2.3,7.7,i,0.695,/,1.4,5.9,-4.4
Cc1cccc(NC(=S)N(CCN(C)C)Cc2cc3cccc(C)c3[nH]c2=O)c1,0.9,4.5,-2.6,/,0.725,-12.7,/,/,/
O=S1(=O)N=C(N/N=C/C=C/c2ccccc2)c2ccccc21,-0.9,/,6.0,/,/,33.3,/,/,/
CNC(=O)N(O)C1N(/N=C/c2ccc(SC)cc2)C(=S)SC1(C)C (stereo unspecified),-0.9,/,-3.2,i,/,31.1,5.0,4.0,-1.1
COc1ccc(-c2cc(C(=O)O)sc2C)cc1,-1.1,-0.5,-2.4,i,0.695,0.9,-15.9,-8.6,-6.2
O=C(Nc1nccc(-c2cccs2)n1)c1cccs1,2.9,2.1,-11.7,/,0.684,14.2,/,/,/
CC1CC(C)(C)NC(C)c2ccccc21 (stereo unspecified),3.0,0.7,-5.3,/,0.709,-4.0,/,/,/
COc1ccc(NC(=O)CCNS(=O)(=O)c2ccc(C)c(C)c2)cc1OC,-1.1,-1.2,-0.8,i,0.604,/,-3.5,-12.3,6.7
CCN(CC)S(=O)(=O)c1ccc(C(=O)NC(=S)N2CCCCC2C)cc1 (stereo unspecified),-2.8,/,/,i,/,/,-4.5,-17.0,-1.3
CCN(Cc1cc(=O)[nH]c2ccccc12)C(=O)C(C)C,2.1,-0.6,4.4,i,0.679,-15.8,6.5,5.6,-4.5
CCOc1ccccc1N(CC(=O)NC(C)(C)C)C(=O)CCC(=O)Nc1nccs1,2.6,4.7,1.7,i,0.668,-1.3,2.2,3.3,-3.6
CC1CCN(c2ccc3nnc(CCC(=O)Nc4ccc(F)c(F)c4)n3n2)CC1,4.6,-12.6,-5.1,i,0.744,-0.8,21.2,17.7,2.2
O=C(CSCc1ccc(Cl)cc1)NN=C1CCCCCC1,1.9,1.1,-2.1,/,0.621,40.7,/,/,/
Cn1c(Cc2nc3ccccc3n2C)nc2ccccc21,2.0,41.9*,-14.8,i,/,6.4,5.6,-0.7,-4.7
C/C(=N\NC(=O)C1CCCC1)c1ccc(Cl)cc1,1.9,/,-12.5,i,/,-9.5,14.4,12.9,1.1
O=C(Nc1ccon1)c1cnc2sccn2c1=O,2.1,-60.9,-6.8,/,0.694,/,/,/,/
COc1ccc2c(c1)CCCC21NC(=O)N(CC(=O)c2cc(F)ccc2F)C1=O (stereo unspecified),1.1,4.1,-8.6,i,0.67,2.8,14.7,7.5,2.8
COc1ccc(-c2csc3nc(C)n(-n4cccc4)c(=O)c23)cc1OC,-5.5,6.0,-5.0,/,0.703,-15.0,1.8,-15.1,-0.2
CC(C)(C)NC(=O)/C(=C\c1ccccc1F)NC(=O)c1ccc([N+](=O)[O-])cc1,-0.2,3.2,3.0,/,0.701,-15.1,1.7,5.7,-0.1
Cc1c(Cl)cccc1NC(=S)N(Cc1cccnc1)Cc1ccccc1Cl,-0.4,3.2,2.9,i,0.689,-0.3,-34.7,-45.8,-2.7
CCCCC(=O)Nc1ccc(C(=O)N2CCC(C(=O)OCC)CC2)cc1,-1.4,0.2,-1.2,/,0.734,15.9,/,/,/
O=C(NC(=S)Nc1ccc(S(=O)(=O)Nc2nccs2)cc1)C1CC1,0.5,1.3,6.2,i,0.7,/,-14.3,-2.2,0.8
Cc1[nH]nc(C(F)(F)F)c1CCC(=O)NC1CCCCCC1,-0.2,0.4,4.1,i,0.665,/,3.5,16.6,1.2
NC(=O)CC(NC(=O)Cc1ccc(Br)cc1)c1ccc(N2CCN(c3ccccc3)CC2)c([N+](=O)[O-])c1 (stereo unspecified),2.5,/,-3.3,/,/,9.5,/,/,/
CC(NC(=O)Nc1ccc(Br)cc1)C(C)(C)C (stereo unspecified),2.6,3.3,-0.1,i,0.636,-8.0,-29.7,-38.7,-12.2
COc1ccc(-c2nsc(SCC(=O)Nc3cc(C)on3)n2)cc1,1.0,4.2,3.2,/,0.697,/,/,/,/
O=C(CN(c1ccccn1)S(=O)(=O)c1ccc(F)cc1)Nc1ccc(F)cc1F,-3.1,-21.6,1.1,i,0.704,-3.3,19.1,23.3,4.8
CCOC(=O)C1(C)C=C(Nc2ccc(OCC)cc2)C(=O)N1c1ccccc1 (stereo unspecified),-2.7,-14.0,3.6,/,0.73,-3.6,4.2,0.2,3.3
CCOC(=O)N1CCN(c2ccc(S(=O)(=O)N3CCC(C)CC3)cc2[N+](=O)[O-])CC1,3.2,2.6,-3.1,i,0.655,/,-18.8,-14.3,-4.3
Cc1cc(C)c(S(N)(=O)=O)c(C)c1N(C)S(=O)(=O)c1ccc(Cl)cc1,-2.6,1.6,-2.4,i,0.659,1.7,-39.8,-51.8,-12.2
O=c1c2ccccc2cnn1Cc1n[nH]c(=S)n1-c1ccc(F)cc1,5.7,1.2,1.3,i,0.726,0.7,1.9,1.7,-0.8
COc1ccc(C(C(=O)NC(C)(C)C)N(C(=O)Cn2nnc3ccccc32)c2cccc(C(C)=O)c2)cc1O (stereo unspecified),2.0,4.8,5.9,i,0.645,/,2.9,7.2,1.5
C/C(=N\NC(=O)OC(C)(C)C)c1ccccc1Br,-6.3,/,-1.5,i,/,/,0.2,-13.4,0.4
CCOC(=O)c1c(S(=O)(=O)N(C)C2CCCCC2)c(C)n(C)c1C,1.3,5.1,-0.3,i,0.722,4.0,-8.7,-13.5,0.0
CCn1c(=O)cc(OCC(=O)NCc2cccs2)c2ccccc21,1.1,18.9,-1.5,i,0.68,0.5,-13.4,-10.7,-5.8
COCCN(CCOC)c1nc(N)c2c(N)nc3c(c2c1C#N)CC(=O)N3Cc1ccc(Cl)cc1,1.2,-37.6,2.7,/,0.68,-3.3,/,/,/
O=Cc1ccc(-c2cccc(C(=O)O)c2)o1,-5.1,-2.2,-3.3,i,0.607,0.5,12.1,8.3,-3.2
COC(=O)[C@@H](Cc1c[nH]c2ccccc12)NC(=O)CCC(=O)c1ccc(Br)cc1,0.0,5.5,5.0,i,0.641,-17.9,-35.0,-31.8,-3.5
COc1ccc(/C(C)=N/Nc2nc(C)c(C(C)=O)s2)cc1,5.2,/,12.7,i,/,14.4,-23.3,-10.7,-2.4
COc1ccc(S(=O)(=O)NCCSCc2cccs2)cc1,3.3,2.8,2.2,/,0.65,39.7,/,/,/
O=C(c1ccc(CSc2nc3ccncc3[nH]2)cc1)N1CCCCCC1,0.8,3.6,-9.5,i,0.722,-6.3,-9.0,-9.1,-3.7
Cc1ccc(-c2nc3c(Cl)cc(C(F)(F)F)cn3c2Cc2cccc(Cl)c2)cc1,1.6,/,/,i,/,/,-8.2,-12.8,23.9
COc1cccc(N=CC2=C(O)CC(C)(C)CC2=O)c1,3.4,/,0.5,i,/,/,6.9,2.7,-4.1
CCC(=O)Nc1nc2nc(-c3ccccc3)cc(=O)n2[nH]1,-0.9,2.9,-3.7,i,0.662,7.1,13.7,23.1,2.7
Cc1nn(Cc2ccccc2)c(C)c1NC(=O)Cn1nc([N+](=O)[O-])c(Cl)c1C,-1.1,4.9,0.0,/,0.643,-3.7,/,/,/
O=C(NCc1ccccc1Cl)c1ccc2ccccc2n1,1.6,-3.5,1.7,i,0.659,0.6,-2.9,-18.8,-2.6

# Shown as tab-separated lines: part of the list above.
SMILES	HNF4A DNA FP	UCH37 DUB inh	Beta2AR agonist	FGF22 binding	E coli growth	ALR inh	rRNA inh HTS	rRNA inh HTS OD600	rRNA inh HTS RFP
CCn1c(=O)cc(OCC(=O)NCc2cccs2)c2ccccc21	1.1	18.9	-1.5	i	0.68	0.5	-13.4	-10.7	-5.8
COC(=O)[C@@H](Cc1c[nH]c2ccccc12)NC(=O)CCC(=O)c1ccc(Br)cc1	0.0	5.5	5.0	i	0.641	-17.9	-35.0	-31.8	-3.5

# Later entries:
SMILES,HNF4A DNA FP,UCH37 DUB inh,Beta2AR agonist,FGF22 binding,E coli growth,ALR inh,rRNA inh HTS,rRNA inh HTS OD600,rRNA inh HTS RFP
CCOC(=O)c1cc2c(s1)-c1ccccc1CC2,-1.4,-132.8,-2.6,/,0.782,-5.1,/,/,/
COc1ccccc1/C=N/NC(=O)c1ccccc1Cl,1.0,/,4.2,i,/,/,17.5,12.9,1.8
CSc1ccccc1OCc1cc(C(=O)N2CCCC2c2nonc2C)no1 (stereo unspecified),1.1,0.1,-2.2,i,0.633,-4.6,3.1,2.9,-2.5
CCCc1nnc(SCC(=O)Nc2cc(C)on2)n1CCOC,-1.0,-0.9,3.4,i,0.627,3.0,2.7,12.4,-1.0
O=S(=O)(Nc1cccc(-n2cnnn2)c1)c1ccc(Cl)nc1,0.2,-0.3,6.1,i,0.631,2.8,0.7,2.8,-0.3
COc1ccccc1CN1CCCC(CN(CCN(C)C)C(=O)C2CCCC2)C1 (stereo unspecified),3.2,1.0,3.4,i,0.639,-7.1,8.5,16.3,0.3
CCc1ccc(C(=O)COC(=O)CNC(=O)COc2ccccc2)cc1,-3.1,6.2,-3.4,i,0.702,-4.1,8.2,6.3,3.6
